Screening data as filed in PubChem BioAssay.
GIV Gai3 FP = inhibitors of GIV peptide binding to Galpha-i3, primary screen, biochemical, fluorescence polarization, FITC-GIV GBA peptide, rat Galphai3; 210,000 tested, 0.42% active; AID 1224905, 2016; percent of control (FP), % (no concentration beside the values); 90 min; hits give low values; scaled: aluminum fluoride 0%, vehicle 100%;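 active = replicate mean at 85% of control or lower, very high polarization wells dropped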;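 also: wells of about 15 µL received 100 nL stock; the first replicate is given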
Target sequence (P08753 whole entry, looked up): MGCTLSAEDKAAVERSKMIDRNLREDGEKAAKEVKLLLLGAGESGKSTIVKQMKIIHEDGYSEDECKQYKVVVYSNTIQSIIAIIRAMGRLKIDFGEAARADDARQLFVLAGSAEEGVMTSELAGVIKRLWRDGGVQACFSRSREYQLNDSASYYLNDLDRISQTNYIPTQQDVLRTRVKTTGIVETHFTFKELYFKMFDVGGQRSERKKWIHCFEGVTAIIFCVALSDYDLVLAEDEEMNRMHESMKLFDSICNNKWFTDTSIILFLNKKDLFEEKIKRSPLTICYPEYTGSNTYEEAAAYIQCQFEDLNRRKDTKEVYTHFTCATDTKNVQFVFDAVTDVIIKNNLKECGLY
Sa growth inh = S. aureus growth inhibition at 42 and 30 °C, primary screen, LtaS inhibitor project, RN4220, two temperatures; 170,000 tested, 0.53% active; OD600, 20 h, 42 °C; hits give low values; relative growth, % (test concentration not listed); AID 720641, 2013;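 active = growth at 42 °C up to 50% and 20 or more points under that at 30 °C, or under 10% at both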;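 also: 300 nL library stock went into each well; scaled to the means of positive and negative controls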
HCMV UL50-53 inh = inhibitors of HCMV UL50-UL53 interaction, biochemical, HTRF | inhibition, % (no concentration beside the values) | AID 1918969, 2023 | HCMV UL50-UL53 nuclear egress complex (human cytomegalovirus) | 190,000 tested, 0.15% active | normalized percent inhibition;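 active = both replicates at 50% or more, plus weaker picks with an unusually low signal ratio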;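 also: stock transfer was 100 nL into about 20 µL; 0% = negative control wells and 100% = wells with untagged competitor protein; inactives centre near -12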
Sa growth inh second temp = also measured in Sa growth inh; calls as there; relative growth, %; measured here: growth at 30 °C;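 optical density after 20 h as mean of two plates; 100% = untreated growth and lower means inhibition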
Numbers without * were called inactive; / = no result given; & = joins results of further samples. This is a random part of the collection; 0.8% or so of the library scored in one or more.

Every second line gives: GIV Gai3 FP, Sa growth inh, Sa growth inh second temp, HCMV UL50-53 inh
> CC1CCC(NC(=O)C2(C)Cc3ccccc3C(=O)N2Cc2ccccc2Cl)CC1 (stereo not drawn)
    104, 106, 86, -33
> Cc1ccc2onc(CNC(=O)N3C(C)CCCC3C)c2c1 (stereo not drawn)
    104, 55, 43, 6
> O=C(CN1CCN(S(=O)(=O)c2ccc(Br)s2)CC1)N1CCCc2ccccc21
    /, 81, 89, -22
> N#Cc1ccc(NC(=O)CSc2ncn[nH]2)cc1
    105, 105, 87, -10
> COc1ccc(N2CCN(C(=O)CCn3nc(C)c(S(=O)(=O)N4CCCC4)c3C)CC2)cc1
    105, 119, 94, /
> COc1ccc(CCNC(=O)c2cc3c(=O)n4cccc(C)c4nc3n2C)cc1
    102, 102, 90, -20
> O=C1C=CC(=O)c2c(Cl)ccc(Cl)c21
    103, 91, 77, -35
> Cc1cc(C(C)(C)C)c(O)c(C)c1CC1=NCCN1
    100&96, 89&98, 92&89, -10&-10&4&5&-5&-29
> COc1cccc(CNC(=O)c2ccc3c(c2)sc2nc(-c4cccc(OC)c4)cn23)c1
    110, 135, 91, /
> CCCn1c(SCc2ccccc2C#N)n[nH]c1=O
    /, 90, 81, -11
> Cc1ccc(C(=O)c2cn(CC(=O)NCc3ccccc3)c3nc(C)ccc3c2=O)cc1
    103, 98, 87, /
> N#Cc1c(NC(=O)CCn2cnnn2)sc2c1CCCC2
    105, 103, 87, 16
> Cc1cc(C)c(NC(=O)Cn2c(=O)oc3cc(S(=O)(=O)N4CCCCCC4)ccc32)c(C)c1
    100, 101, 100, 0
> CC12C=CC(O1)C1C(=O)N(c3ccc(Br)cc3[N+](=O)[O-])C(=O)C12 (stereo not drawn)
    98, /, /, -74
> CCOC(=O)Cc1csc(SCc2nc3sc4c(c3c(=O)[nH]2)CCCC4)n1
    /, 86, 90, -6

A stretch from further up, as a working copy:
Every second line gives: GIV Gai3 FP, Sa growth inh, Sa growth inh second temp, HCMV UL50-53 inh
> N#Cc1c(NC(=O)CCn2cnnn2)sc2c1CCCC2
    105, 103, 87, 16
> Cc1cc(C)c(NC(=O)Cn2c(=O)oc3cc(S(=O)(=O)N4CCCCCC4)ccc32)c(C)c1
    100, 101, 100, 0
> CC12C=CC(O1)C1C(=O)N(c3ccc(Br)cc3[N+](=O)[O-])C(=O)C12 (stereo not drawn)
    98, /, /, -74
> CCOC(=O)Cc1csc(SCc2nc3sc4c(c3c(=O)[nH]2)CCCC4)n1
    /, 86, 90, -6

(cont.)
Every second line gives: GIV Gai3 FP, Sa growth inh, Sa growth inh second temp, HCMV UL50-53 inh
> O=C(CN1CCOCC1)N1CCN(c2ccccc2)CC1
    99, 99, 76, -15
> Cn1c(=O)c(=O)[nH]c2cc(-c3noc(CNC(=O)Cc4ccccc4)n3)ccc21
    114, /, /, -24
> COC(=O)c1cc(S(=O)(=O)N2CCC(c3ccccc3)C2)c[nH]1 (stereo not drawn)
    104, 105, 99, 2
> CCn1c(=O)cc(SCC(=O)NCc2cccs2)c2ccccc21
    99, 88, 75, /
> CC(=O)Nc1ccc(NC(=O)Cn2cc3c(n2)CCC(C)C3)cc1 (stereo not drawn)
    104, 78, 84, -20
> O=C(CN1CCCCC1)Nc1cccc2nsnc12
    /, 77, 96, -103
> Cc1ccc2sc(N3CCN(C(=O)CCS(=O)(=O)c4ccc(Cl)cc4)CC3)nc2c1C
    97, 111, 92, /
> O=C(CCCn1c(=O)c2cccn2c2ccccc21)NC1CCCC1
    103, 123, 83, /
> O=C(Nc1ccc(Br)cc1)c1ccc(Nc2cc(-c3ccc(F)cc3)ncn2)cc1
    105, /, /, -10
> COc1cc(C2CC(=O)N(CC(=O)Nc3ccccc3F)c3ccccc3S2)cc(OC)c1OC (stereo not drawn)
    104, 106, 74, -2
> CN1CCN(CCNC(=O)c2ccc(CN3C(=O)CCn4nc(-c5ccc(Cl)cc5)cc43)cc2)CC1
    104, /, /, -6
> CC(=O)Nc1ccc(NC(=O)CSc2nc3ccccc3o2)cc1
    105, /, /, -9
> O=C(Nc1ccc2oc(-c3ccccc3Cl)nc2c1)c1ncn[nH]1
    97&97, 91, 59, -8&-18
> CCCCc1ccc(NC(=O)N2CCN(c3cc(C)nc4ccccc34)CC2)c(C)c1
    105, 89, 86, -26
> Cc1nc(-c2ccc(S(=O)(=O)NCC3CCN(C(=O)OC(C)(C)C)CC3)s2)cs1
    109, 99, 78, -29
> COC1OC(COC(C)=O)C(OC(C)=O)C(C#N)(C#N)C1OC(C)=O (stereo not drawn)
    /, 76, 89, -5
> Cc1ccc(NC(=O)CSc2nc3ccccc3nc2Cc2ccccc2)c(Cl)c1
    105, 78, 90, /
> O=C(c1ccccc1)c1cccn1CC(=O)N1CCN(c2ccc(F)cc2)CC1
    107, 113, 97, 8
> COc1ccccc1C(CC#N)c1ccco1 (stereo not drawn)
    105, 98, 88, -10
> Cc1c(F)cccc1NC(=O)C1CCCN1S(=O)(=O)c1ccc(F)cc1 (stereo not drawn)
    103, 87, 96, -5
> C=CCSc1n[nH]c(-c2ccc(OC)cc2)n1
    113, 113, 95, -1
> O=C(COc1cccc(-c2nc(-c3ccccc3)no2)c1)Nc1ccccc1F
    111, /, /, 14
> O=C(CN1C(=O)COc2ccc(S(=O)(=O)NC3CCCC3)cc21)Nc1ccc(Cl)cc1F
    102, 69, 94, /
> COc1cccc(NC(=O)Nc2ccc3nc(SCC(=O)Nc4ccccc4C)sc3c2)c1
    100, /, /, -18
> Cc1ccc2nc(N3CCN(C(=O)C(C)C)CC3)c(-c3noc(-c4ccccc4)n3)cc2c1
    105, /, /, -22
> CC(C)CN(CCCNC(=O)CN1N=C(c2ccc(Cl)cc2)CCC1=O)CC(C)C
    103, 108, 88, /
> CN(C)c1cccc(N(C)C)c1CNC(=O)NC(=O)c1c(Cl)cccc1Cl
    107, 100, 92, -28
> CC12CN3CC(C)(CN(C1)C3c1cccc(Br)c1)C2=O (stereo not drawn)
    108&104, /, /, 19
> CC(C)Oc1ccccc1NC(=O)CSc1nnc(-c2ccco2)n1-c1ccccc1
    105, 108, 83, -8
> CCOC(=O)c1cnc2c(C)cc(Cl)cc2c1Cl
    112, 88, 81, -31

4 compounds out of the list, sorted by SMILES length, falling.
Every second line gives: GIV Gai3 FP, Sa growth inh, Sa growth inh second temp, HCMV UL50-53 inh
> CC(C)Oc1ccccc1NC(=O)CSc1nnc(-c2ccco2)n1-c1ccccc1
    105, 108, 83, -8
> COC1OC(COC(C)=O)C(OC(C)=O)C(C#N)(C#N)C1OC(C)=O (stereo not drawn)
    /, 76, 89, -5
> Cc1c(F)cccc1NC(=O)C1CCCN1S(=O)(=O)c1ccc(F)cc1 (stereo not drawn)
    103, 87, 96, -5
> CC12CN3CC(C)(CN(C1)C3c1cccc(Br)c1)C2=O (stereo not drawn)
    108&104, /, /, 19

Continued:
Every second line gives: GIV Gai3 FP, Sa growth inh, Sa growth inh second temp, HCMV UL50-53 inh
> CCOc1ccc(N2C(=O)N(CC(=O)N3CCCCC3C)c3ccccc3S2(=O)=O)cc1 (stereo not drawn)
    109, 101, 110, -7
> CCc1nc2cccnc2n1CCNC(=O)Nc1ccc(OC)cc1
    110, 72, 87, -9
> COc1cccc(NC(=O)Nc2cc(NC(=O)c3cccc(C)c3)ccc2N2CCCC2)c1
    102, /, /, 11
> COC(=O)c1ccc2nc(C)cc(Nc3ccc(O)cc3)c2c1
    118, 96, 96, -6
> CCOc1ccc(N(C)S(=O)(=O)c2cnc[nH]2)cc1
    105, 102, 90, -3
> CCN(CC)C(=S)SCc1nc(N)nc(Nc2ccc(C)cc2)n1
    105, 97, 82, -29
> CCN(CC)S(=O)(=O)c1ccc2c(c1)c(=O)c(C(=O)N1CCC(Cc3ccccc3)CC1)cn2C
    102, /, /, -30
> O=C(NCCc1ccccc1)c1nnc(CS(=O)(=O)c2ccccc2)o1
    105, 82, 81, /
> O=C(CSc1ncccc1C(=O)O)c1ccccc1F
    /, 99, 88, 3
> CC(C)N(C(=O)CSc1nnc(-c2ccco2)n1C)C(C)C
    100, 59, 88, -5
> O=S(=O)(Nc1ccc(-c2ccc(N3CCCCC3)nn2)cc1)c1ccc2c(c1)OCCO2
    103, /, /, -6
> Cc1c(C=Nc2ccc(N3CCOCC3)cc2)c2ccccc2n1C
    /, 104, 86, -11
> CC1CCCCC12NC(=O)N(CCC#N)C2=O (stereo not drawn)
    /, 92, 88, -19
> O=C(c1ccccc1)N1CCN(c2ccnc3cc(Cl)ccc23)CC1
    98, 121, 84, -2
> C=CCn1c(C)cc(C(=O)CSc2nc(-c3ccccc3)cn2N)c1C
    /, 97, 93, -8
> O=C(NC1CC2CCC1C2)c1ccccc1 (stereo not drawn)
    100, 107, 94, -4
> FC(F)(F)c1cc(Cl)nc(-c2ccncc2)n1
    107, /, /, -6
> CC1N(O)C(C)(C)C(c2ccccc2)=[N+]1[O-] (stereo not drawn)
    /, 91, 87, -13
> O=C(NCCCN1CCCCC1)c1sc2ncccc2c1-n1cccc1
    101, 80, 90, /
> O=C(c1ccc2c(c1)N(Cc1cccc(Cl)c1)C(=O)c1ccccc1S2(=O)=O)N1CCc2ccccc21
    99, 118, 107, /
> Cc1c(C(=O)N2CCC(C(N)=O)CC2)sc(N)c1C#N
    100, 101, 114, -13
> CC(C)c1ccc(-c2nnn(Cc3cc(=O)n4ccsc4n3)n2)cc1
    /, 95, 97, -18
> Nc1cc(C(F)(F)F)ccc1Oc1ccc(Cl)cc1Cl
    100, 101, 75, /
> CN(Cc1ccccc1)C(=O)c1c[nH]c2ccc(S(=O)(=O)N3CCOCC3)cc2c1=O
    103, 108, 96, /
> CC1=C(c2cccc(Br)c2)S(=O)(=O)NC1=NC1CCCC1
    105, 114, 105, 30
> Cc1ccc(S(=O)(=O)N(c2nc(N(C)C)nc(N(C)C)n2)n2cnnc2)cc1
    109, 103, 95, -27
> O=C(OCc1ccc2nonc2c1)c1c2c(nc3ccccc13)CCCC2
    /, 86, 103, 4
> CCOC(=O)CCc1c(C)c2c(C)nn(-c3ccccc3)c2[nH]c1=O
    95, 97, 93, -5
> CCCOc1ccc(C2C(C(=O)OC)=CN(CCOC)C=C2C(=O)OC)cc1
    106, 106, 93, -21
> CCOc1ccc(NC(=O)Nc2ccc(Cn3cnc(-c4nc(-c5ccc(Cl)cc5)no4)c3)cc2)cc1
    102, /, /, -23
> CCOC(=O)c1ccccc1NC(=O)CSc1ncc(CO)n1Cc1ccc(C)cc1
    102&103, 117, 82, -6
> Cc1nc(-c2ccc(N3CCN(C(=O)c4cc5ccccc5[nH]4)CC3)cc2)no1
    104, /, /, -16
> CC1CCC(C(=O)NC(C(=O)NCc2ccccn2)C(C)C)CC1 (stereo not drawn)
    107, 94, 88, /
> CN(C)c1ccc(-n2nnnc2SCC(=O)C(C)(C)C)cc1
    99, 114, 95, 2
> CC(=O)NC(CC(=O)n1nnc2ccccc21)c1ccccc1 (stereo not drawn)
    /, 94, 96, -7
> CCN(Cc1nc(-c2cccc(C)c2)no1)S(=O)(=O)c1ccc(C)cc1
    94, 103, 87, -13
> O=C(NCc1ccc2c(c1)OCO2)c1ccc2snnc2c1
    101, 85, 69, -12
> CCN1CCN(c2ncnc3sc(C(=O)O)c(C)c23)CC1
    105, /, /, -1
> CCOC(=O)c1ccc(N2C(=O)CC(N3CCN(c4ccc(O)cc4)CC3)C2=O)cc1 (stereo not drawn)
    101, 106, 70, 1
> CC(C)(C)NC(=O)C1CCN(c2nc3ccccc3nc2C(F)(F)F)CC1
    102, 83, 91, /
> O=C(O)c1ccc(Nc2ncnc3ccccc23)cc1
    106, 92, 82, -17
> Cc1ccc(-n2ncc3c(=O)n(CC(=O)N4CCc5ccccc54)cnc32)cc1C
    105, 96, 93, -8
> Fc1cccc(Cl)c1CSC(=S)N1CCSCC1
    106, 99, 18, -16
> COc1ccc(OC(=O)c2ccc(-c3ccccn3)s2)cc1
    100, 88, 84, -12
> COCCCNC(=O)Cn1c(=O)n(-c2ccc(Cl)cc2)c(=O)c2c3c(sc21)CCCCC3
    106, 101, 88, -14
> Cc1oc2c(c1CC(=O)O)C(=O)CC(C)(C)C2
    103, 96, 76, -5
> Cc1ccc(C(=O)Nc2ccc(OCc3cc(=O)n4c(C)csc4n3)cc2)cc1
    101, 97, 91, -31
> COc1cc2c3c(c1)C1(C(=O)N3C(C)(C)C=C2C)C(C#N)=C(N)NC(=O)C1C(N)=O (stereo not drawn)
    102, 101, 77, -12
> Cn1c(SCC(=O)Nc2ccccc2)nnc1-c1ccc2ccccc2c1
    105, 118, 88, -6
